TRPML1 blocker: qHTS for Inhibitors of the Human Mucolipin Transient Receptor Potential 1 (TRPML1); Mucolipin-1 (Homo sapiens), Q9GZU1; TRPML1-inducible cells, Ca2+ dye fluorescence, FDSS; stronger effect = lower value; inhibition of EC80 agonist-evoked calcium signal; activity change, negative = inhibition, % (no concentration beside the values); 0.02% of 390,000 active; in the data active means activity change below about -50%; inconclusive means about -30% to -50%; inactive means above about -30%;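 further: stimulus is agonist 54-4 at its EC80 concentration; on the % scale 0 is the no-effect control and ±100 the full control effect; compound concentration not given in the record; the text of the record puts the active cut at -80%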
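Tet-induced TRPML1-DL cells loaded with Ca8 no-wash calcium dye were read kinetically on FDSS. Compound addition was followed by EC80 agonist 54-4 (4 uM final); inhibition was read over 110 s.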
ClpP mod: qHTS Assay for Activators of ClpP. ATP-dependent Clp protease proteolytic subunit (Bacillus subtilis (strain 168)), P80244. purified B. subtilis ClpP, FRET peptide cleavage, 20 min. Potency, µM (top dose mostly 57.5 µM), inactives show at the highest dose activity change, negative = active. 1.9% of 340,000 active. AID 651965, 2013; active = well fitted falling curve with a large enough effect; inconclusive = small, poorly fitted or top-dose-only effect; inactive = no such curve, though single readings can be large or run the other way; further: potency means the concentration at half of the fitted maximal effect; the source files actives as falling curves though it sought activators and does not explain the sign; nearly all actives have a fitted effect of over 65% in size; many hits overshoot -100%
Target sequence (P80244 whole entry, looked up): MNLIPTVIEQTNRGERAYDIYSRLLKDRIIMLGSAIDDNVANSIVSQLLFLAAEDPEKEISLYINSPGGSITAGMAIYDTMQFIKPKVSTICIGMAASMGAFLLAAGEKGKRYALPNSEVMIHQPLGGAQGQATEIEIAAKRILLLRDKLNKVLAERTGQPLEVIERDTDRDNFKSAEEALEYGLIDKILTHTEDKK
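Purified B. subtilis ClpP, 10 microg/mL final in Tris/HCl pH8 with KCl, BSA, glycerol and Tween-20, cleaved an Abz/nitrotyrosine-quenched decapeptide. Fluorescence (ex 320, em 430) was read at 0 and 20 min at room temperature. Delta was normalized to 5.8 microM ADEP and DMSO/no-enzyme controls.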
Menin MLL FP FL: qHTS Assay for Inhibitors Targeting the Menin-MLL Interaction in MLL Related Leukemias: Competition With Fluorescein Labeled MLL-derived Peptide; AID 1766, 2009; Fluorescence polarization, fluorescein-MLL peptide displacement from menin; 290,000 tested, under 10 active; FP activity change, % at 61.4 µM; inconclusive = falling polarisation curve, or a change in total fluorescence; inactive = total fluorescence flat and polarisation flat or rising; no compound was filed as active; the % refers to the polarisation; negative = inhibition;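 further: % of control where 0% means no effect; inhibitors lower the polarisation; unlabelled MLL peptide was the positive control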
TRPML1 agonist: qHTS for Agonists of the Human Mucolipin Transient Receptor Potential 1 (TRPML1). TRPML1-expressing cells, Ca2+ dye fluorescence, FDSS; host cell line not named in the record; reference of the full effect not given here. AID 624414, 2012. 0.12% of 410,000 active. activation, % (concentration not given with the values). Mucolipin-1 (Homo sapiens), Q9GZU1; in the data active = activation above about 50%; inconclusive = about 30% to 50%; inactive = below about 30%; further: 0% is about no effect; the text of the record puts the active cut at 80%
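Tetracycline-induced TRPML1-DL cells are seeded and incubated overnight before loading with a no-wash Ca2+ dye and quencher. Agonist activity is taken from the 110 s fluorescence read following compound pin-transfer on an FDSS, before EC80 54-4 challenge.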
PINK1 expr mod: A Quantitative High throughput Screen to Identify Chemical Modulators of PINK1 Expression. Potency, µM (highest dose often 76.6 µM), inactives show at the top dose activation (PINK1 increase), most hits filed as activators. AID 624263, 2012. 0.2% of 410,000 active. PINK1 immunofluorescence, high-content cytometry, 24 h; active = well fitted activation curve with a large enough effect; inconclusive = small, poorly fitted or top-dose-only effect; inactive = flat fitted curve, though single readings scatter; cell line not stated here;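 further: potency means the concentration at half of the fitted maximal effect; % of control where 0% means no effect; nearly all actives have a fitted effect of over 65% in size; a mitochondrial uncoupler was the plate control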
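Decision-based qHTS: stable cells, 24 h exposure to five compound concentrations, CCCP as control. Fixed cells stained for PINK1 plus nuclear, mitochondrial and cell markers, cytometer read.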
TRPV1 potentiator: HTS Assay for Compounds that Act as Potentiators of the Vanilloid Receptor 1; Transient receptor potential cation channel subfamily V member 1 (Homo sapiens), Q8NER1; TRPV1-expressing cells, Fluo-8 calcium influx, capsaicin EC20 potentiation; host cell line not named in the record; control for the full effect not named in the record; potentiation, % at 8.33 µM; 0.02% of 320,000 active; active means potentiation above 80%; inconclusive means 30% to 80%; inactive means below 30%; further: 0% is about no effect
Target sequence (Q8NER1 whole entry, looked up): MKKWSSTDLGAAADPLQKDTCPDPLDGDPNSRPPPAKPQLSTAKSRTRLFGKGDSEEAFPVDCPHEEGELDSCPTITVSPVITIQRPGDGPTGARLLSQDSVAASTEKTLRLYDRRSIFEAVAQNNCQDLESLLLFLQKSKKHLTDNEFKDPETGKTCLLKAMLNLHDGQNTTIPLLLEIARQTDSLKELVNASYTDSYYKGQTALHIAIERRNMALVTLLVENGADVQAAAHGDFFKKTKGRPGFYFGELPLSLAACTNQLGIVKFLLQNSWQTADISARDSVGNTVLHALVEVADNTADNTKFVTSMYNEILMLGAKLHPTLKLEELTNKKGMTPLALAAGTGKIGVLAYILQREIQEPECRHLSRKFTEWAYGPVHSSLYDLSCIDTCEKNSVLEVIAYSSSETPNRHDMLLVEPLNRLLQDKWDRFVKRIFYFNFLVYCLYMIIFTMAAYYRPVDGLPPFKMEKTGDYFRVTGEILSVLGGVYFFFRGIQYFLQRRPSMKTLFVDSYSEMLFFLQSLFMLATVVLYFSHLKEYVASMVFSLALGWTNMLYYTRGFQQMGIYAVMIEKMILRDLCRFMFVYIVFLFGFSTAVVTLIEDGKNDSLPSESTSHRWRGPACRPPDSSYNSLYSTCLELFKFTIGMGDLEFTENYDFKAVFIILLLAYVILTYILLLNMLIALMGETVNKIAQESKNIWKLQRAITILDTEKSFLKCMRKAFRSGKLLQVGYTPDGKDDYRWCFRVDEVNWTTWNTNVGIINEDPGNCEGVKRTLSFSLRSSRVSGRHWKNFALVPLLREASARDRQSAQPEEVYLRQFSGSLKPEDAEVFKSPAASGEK
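Fluo-8 calcium influx in TRPV1-expressing cells, kinetic read (ex 480/em 520 nm). Compound added and read 3 min for agonist activity, followed by capsaicin at EC20 final and 2 min further read for enhancement.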
Sfp inh: qHTS Assay for Inhibitors of Bacillus subtilis Sfp phosphopantetheinyl transferase (PPTase) | AID 1490, 2009 | Biochemical Sfp PPTase activity, qHTS | Potency, µM, for inactives: max response, negative = inhibition, actives largely listed as inhibitors | 3.5% of 310,000 active | 4'-phosphopantetheinyl transferase ffp (Bacillus subtilis), Q9F4F7; active means well fitted inhibition curve with a large enough effect; inconclusive means small, poorly fitted or top-dose-only effect, or another doubt; inactive means no such curve, though single readings can be large or run the other way;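 further: the enzyme is Sfp with the accession as filed and its product quenches rhodamine fluorescence; potency means the concentration at half of the fitted maximal effect; 0% = enzyme reaction without inhibitor and -100% = no enzyme wells; top concentration of the series not given in the record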
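Step 1, compound plus 15 nM Sfp-PPTase, 15 min, room temperature. Step 2, add rhodamine-CoA (5 uM) and BHQ-2-YbbR (12.5 uM). Step 3, read 525/598 nm fluorescence at 0 and 30 min.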
* marks the source's active call; other numbers are inactive results; ? = inconclusive; . = not tested or not shown; & = joins results of further samples; [ ] = remark or other dose.

The line under a structure holds: TRPML1 blocker | ClpP mod | Menin MLL FP FL | TRPML1 agonist | PINK1 expr mod | TRPV1 potentiator | Sfp inh
> COc1ccc(NC(=O)C2CC(=O)NC3=C2C(=O)CC(C)(C)C3)cc1 (configuration not stated)
    -3 | -3.4% | 0.9 | -0.4 | -3.0%[38.3 µM] | 1 | -20%
> Cc1cc(Br)c(OCC(=O)NN)c2c1CCC2
    7 | -1.9% | 1.0 | 0.5 | 3.2% | 4 | -2%
> Cc1nc(N2CCC(C)CC2)c2c(C)c(C(=O)Nc3ccccc3C(F)(F)F)sc2n1
    23 | ? | -3.9 | 2.4 | ? | -21 | -12%
> CC(NC(=O)c1ccc(C(=O)c2ccccc2)cc1)c1ccc(S(N)(=O)=O)cc1 (configuration not stated)
    9 | . | . | 0.8 | -3.7% | -10 | .
> O=C(C=C(O)c1ccc(Cl)cc1)C(=O)NNC(=O)C(O)(c1ccccc1)c1ccccc1
    -20 | . | . | 0.6 | -1.6% | . | .
> COc1ccc(NC(=O)N2c3ccc(OC)cc3C(C)=CC2(C)C)cc1
    -2 | 4.2% | 0.7 | 0.8 | -0.6% | 3 | 20µM*
> CC1(C)CC(=O)C(N=Nc2ccc(Cl)cc2)=C(O)C1
    -6 | 1.5% | 3.2 | -0.5 | 7.1% | -1 | -6%
> COc1ccc(CNC(=O)COC(=O)[C@H](Cc2ccccc2)NC(=O)c2cccs2)cc1
    2 | 0.8% | . | 1.9 | -0.2% | . | .
> Cc1sc(NC(=O)c2ccc(Cl)s2)c(C(N)=O)c1C
    9 | 5.9% | 0.3 | 3.0 | 23%[38.3 µM] | 4 | -3%
> CCC[C@@H]1CCCO[C@@](C(=O)NCCN2CCOCC2)(C(F)(F)F)C1
    -11&-9 | 1.5% | 1.0 | -0.9&0.6 | 1.4% | . | 6%
> COc1cc(OC)c(C=O)c(OC(=O)N2CCOCC2)c1
    3 | -3.2% | 1.0 | 0.7 | 6.7% | -12 | 14%
> O=C(Nc1nccs1)c1cccc(S(=O)(=O)N2CCOCC2)c1
    -12 | -0.3% | 6.1 | -0.5 | 2.7% | -13 | 12%
> CCc1sc(N)nc1-c1ccccc1
    18 | -2.2% | 0.2 | 1.2 | 7.3% | 7 | 79µM*
> Cc1ccc2oc(=O)c3cc(C(=O)NCCN4CCc5ccccc5C4)sc3c2c1
    4 | ? | -2.5 | 0.2 | 8.0% | 6 | -19%
> C[C@H](CO)N1C[C@H](C)[C@@H](CN(C)C(=O)Nc2ccccc2)Oc2c(NC(=O)Nc3ccccc3)cccc2C1=O
    -12 | 0.5% | . | -0.2 | 0.8% | . | .
> Cc1ccc(SCC(=O)OCC(=O)NC(C)c2ccc(Br)cc2)cc1 (configuration not stated)
    10 | 1.4% | . | 2.3 | 1.0% | -5 | 10%
> COc1ccc2nc(CCN(C)C(=O)C3CCC(=O)N(Cc4cccc(F)c4)C3)[nH]c2c1 (configuration not stated)
    3 | 0.3% | 0.4 | 0.4 | -1.3% | -5 | 6%
> COC(C(=O)NNC(=O)CCc1ccccc1)c1ccccc1 (configuration not stated)
    2 | 0.1% | -2.1 | -0.9 | 0.1% | -2 | 17%
> Cc1nc(SCC(=O)NC2CCCC2)c2c(C)c(C)sc2n1
    1 | . | 5.1 | -0.6 | 3.9% | -17 | 11%
> Cc1ccc(N(C)C(=O)c2cc(S(=O)(=O)N3CCc4ccccc43)cn2C)cc1
    4 | 0.6% | -4.3 | 1.6 | 0.6% | -5 | 1%
> COc1ccc(C)cc1NC(=O)Nc1ccccc1SC
    -2 | -0.5% | -1.7 | -1.9 | 0.0% | 14 | -2%
> COc1ccc(NC(=O)CSc2nc3c(oc4ccccc43)c(=O)n2Cc2ccco2)cc1Cl
    19 | -26% | . | 1.6 | 3.0% | 8 | .
> CCN(CC)S(=O)(=O)c1ccc(NC(=O)c2c(-c3ccccc3)noc2C)cc1
    -4 | -2.8% | 4.0 | 1.0 | 1.1% | -3 | 6%
> COc1ccc(CCNC(=O)C2CC=CCC2C(=O)O)cc1 (configuration not stated)
    -5 | -1.2% | 4.6 | 0.1 | -0.2% | -4 | 1%
> CCCOc1ccc(Cn2c(C)nc([N+](=O)[O-])c2SCC(O)COC)cc1[N+](=O)[O-] (configuration not stated)
    -11 | -1.8% | -4.6 | 0.5 | -1.6% | 0 | 5%
> COc1ccc(N2CCN(S(=O)(=O)c3c[nH]c(=O)[nH]c3=O)CC2)cc1
    4 | . | . | -0.2 | -0.1% | 8 | .
> O=C(COC(=O)c1ccc(F)cc1)Nc1ccc(Cl)cn1
    -4 | . | 1.9 | -0.8 | 1.6% | . | 8%
> CCOc1ccc(-c2c(C(=O)N/N=C/c3sccc3C)nnn2-c2nonc2N)cc1
    0 | -12% | 1.0 | 0.8 | 0.8% | 6 | 0%
> O=C(O)c1ccc2c(c1)OCO2
    . | . | -1.6 | . | 1.1% | . | 10%
> Nc1cc2c(cc1Br)-c1ccc(F)cc1C2O (configuration not stated)
    -10 | . | . | 0.1 | 2.1% | . | .
> O=C(NCCCN1CCN(CCCNC(=O)c2ccccc2F)CC1)c1ccccc1F
    1 | 0.9% | 0.6 | -0.6 | 2.1% | 4 | 3%
> Cc1c(C)n(Cc2ccccc2)c2ccc(C(=O)NCc3ccco3)cc12
    24 | -22% | . | 3.0 | 6.0% | . | .
> O=C(COc1ccccc1C(=O)NCC1CCCO1)Nc1ccc(Br)cc1 (configuration not stated)
    -11 | -1.7% | -4.8 | 0.1 | 0.5% | -11 | -9%
> COc1ccc(NC2CCCN(C(=O)CCN3CCCC3=O)C2)cc1OC (configuration not stated)
    -2 | -3.7% | -7.0 | -0.3 | 3.0% | -4 | 1%
> COc1ccc(-c2nnn(CC(=O)N(CC(=O)NC3CCCC3)c3cccc(C)c3)n2)cc1OC
    -12 | -0.4% | 0.3 | 1.4 | ? | ? | 20%
> C[C@@H](NC(=O)[C@@H]1CCCN1C(=O)[C@@H]1CCCN1C(=O)c1cccc(Cl)c1)c1ccccc1
    . | 0.2% | . | -0.8 | -0.5% | . | .
> Nc1c(C(=O)NCCc2ccccc2)nnn1Cc1ccc(Cl)cc1
    -4 | 0.6% | 1.1 | 10 | 7.3% | 2 | 16%
> Cc1ccccc1NC(=O)/C(C#N)=C/c1ccsc1
    5 | 16% | 2.8 | -0.4 | 4.2% | -1 | 14%
> CN(C(=O)c1cccc(NC(=O)Cc2ccc(NC(=O)C3CCCN(C(=O)C4CCCC4)C3)cc2)c1)C1CCCCC1 (configuration not stated)
    -10 | 2.1% | . | 0.4 | 0.2% | . | .
> O=C(O)[C@H]1CCCC[C@H]1C(=O)Nc1ccc(S(=O)(=O)N2CCCCC2)cc1
    -2 | . | -22 | 0.0 | 0.0% | -6 | 9%
> Cc1ccccc1S(=O)(=O)Cc1ccc(C(=O)NCCCN(C)Cc2ccccc2)o1
    12 | -0.9% | -2.3 | -0.3 | 2.5% | -1 | 9%
> CCCCn1c(N)c(N(CCC(C)C)C(=O)COC(=O)c2cccnc2Cl)c(=O)[nH]c1=O
    16 | -3.9% | . | 0.2 | -1.9% | 0 | .
> Cc1cc(C)nc(N/N=C/C2=C(O)CC(c3ccccc3)CC2=O)n1 (configuration not stated)
    . | . | 3.8 | . | . | 12 | 11%
> S=C(NCc1cccs1)Nc1ccc(Br)cc1Cl
    15 | -0.1% | 1.4 | 0.9 | ? | -5 | 13%
> O=C(NCc1ccc(F)cc1)c1cc(C2CCCCN2C(=O)CCCc2ccccc2)on1 (configuration not stated)
    . | -0.8% | . | 0.9 | 1.7% | . | .
> O=C(OCc1ccc([N+](=O)[O-])cc1)c1cc(S(=O)(=O)N2CCCCC2)ccc1N1CCOCC1
    0 | 1.7% | . | 0.4 | -0.5% | -3 | .
> CCCC(=O)N1c2ccccc2NC2=C(C(=O)CCC2)C1c1ccc(F)cc1 (configuration not stated)
    5 | -2.7% | 0.9 | 0.6 | -1.5%[38.3 µM] | -18 | -1%
> Cc1ccccc1CNC(=O)CCc1cn(Cc2ccccc2C)c2ccccc12
    13 | ? | . | 1.8 | 0.4% | . | .
> CCN(CC)C(=O)Cn1cc(C(=O)C(=O)NCCCN2CCOCC2)c2ccccc21
    -11 | -3.5% | . | 0.1 | 1.3% | 9 | 0%
> Cc1cc(C)cc(NC(=O)C2CCN(S(=O)(=O)c3cccc(-c4noc(C)n4)c3)CC2)c1
    9 | 0.5% | . | 1.8 | 0.2% | . | .
> CCn1cc([N+](=O)[O-])c(C(=O)Nc2ccn(C34CC5CC(CC(C5)C3)C4)n2)n1
    ? | -0.8% | 1.4 | 1.1 | 0.1% | -5 | -2%
> Cc1cc2nc(N=C(N)N)nc(C)c2cc1C
    40 | ? | -3.5 | 0.2 | -0.9% | -10 | 10%
> CCN(CC)Cc1c(C(=O)N/N=C/c2cccnc2)nnn1-c1nonc1N
    5 | . | -3.0 | 0.0 | -1.9% | -15 | 4%

For reference, some entries already given.
The line under a structure holds: TRPML1 blocker | ClpP mod | Menin MLL FP FL | TRPML1 agonist | PINK1 expr mod | TRPV1 potentiator | Sfp inh
> Cc1cc2nc(N=C(N)N)nc(C)c2cc1C
    40 | ? | -3.5 | 0.2 | -0.9% | -10 | 10%
> CCN(CC)Cc1c(C(=O)N/N=C/c2cccnc2)nnn1-c1nonc1N
    5 | . | -3.0 | 0.0 | -1.9% | -15 | 4%

Full records as entered above. Screens in order: TRPML1 blocker, ClpP mod, Menin MLL FP FL, TRPML1 agonist, PINK1 expr mod, TRPV1 potentiator, Sfp inh
Entry for CC1(C)CC(=O)C(N=Nc2ccc(Cl)cc2)=C(O)C1 → -6, 1.5%, 3.2, -0.5, 7.1%, -1, -6%
Entry for Cc1sc(NC(=O)c2ccc(Cl)s2)c(C(N)=O)c1C → 9, 5.9%, 0.3, 3.0, 23%[38.3 µM], 4, -3%
Entry for O=C(Nc1nccs1)c1cccc(S(=O)(=O)N2CCOCC2)c1 → -12, -0.3%, 6.1, -0.5, 2.7%, -13, 12%

Bioassay records: PubChem BioAssay, National Center for Advancing Translational Sciences (NCATS)
